Screening data (PubChem BioAssay)
RE007 growth inh: less growth of the S. pombe RE007 Vpr strain; actives 0.21% (n = 360,000); S. pombe RE007 Vpr strain, BacTiter-Glo ATP luminescence, 24 h; control for the full effect not named in the record; Potency, µM (series often up to 92.2 µM), for the others: top-dose activity change, negative = less growth; active = well fitted falling curve with a large enough effect; inconclusive = small, poorly fitted or top-dose-only effect; inactive = no such curve, though single readings can be large or run the other way;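 note: % is set by controls: 0 for no effect and ±100 for the full control effect; nearly all actives have a fitted effect of over 50% in size; the assay follows cell death caused by Vpr and the record does not say whether a fall means rescue or toxicity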
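Fission yeast RE007 carrying one integrated HIV-1 vpr copy, seeded at OD 0.01 in PMG+AL medium with 23 nL pinned compound. Grown 24 h at 30 degrees; viability read by BacTiter-Glo luminescence after 5 min.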
SARS PLP yeast: SARS-CoV PLP inhibition in yeast; S. cerevisiae expressing SARS-CoV PLpro, growth rescue; control for the full effect not named in the record; Potency, µM (top dose mostly 32.9 µM), for the others: top-dose activity, positive = growth rescue; actives 0.19% (n = 330,000); note: 0% is about no effect; nearly all actives have a fitted effect of over 55% in size; growth read by luminescence after 48 h
Cruzain noTriton: inhibitors of Trypanosoma cruzi cruzain without detergent. purified cruzain, Z-FR-AMC fluorescence, no detergent. Potency, µM, for inactives: max response, negative = inhibition, most hits filed as inhibitors. actives 2.3% (n = 200,000); active = well fitted curve in the direction sought with a large enough effect; inconclusive = small, poorly fitted or top-dose-only effect, or another doubt; inactive = no such curve, though single readings can be large; an effect the other way counts as inactive or inconclusive;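 note: plate controls were enzyme without inhibitor for no effect and buffer without enzyme for full effect; nearly all actives have a fitted effect of over 40% in size; top concentration of the series not given in the record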
Target sequence (P25779 123-467 limits assumed): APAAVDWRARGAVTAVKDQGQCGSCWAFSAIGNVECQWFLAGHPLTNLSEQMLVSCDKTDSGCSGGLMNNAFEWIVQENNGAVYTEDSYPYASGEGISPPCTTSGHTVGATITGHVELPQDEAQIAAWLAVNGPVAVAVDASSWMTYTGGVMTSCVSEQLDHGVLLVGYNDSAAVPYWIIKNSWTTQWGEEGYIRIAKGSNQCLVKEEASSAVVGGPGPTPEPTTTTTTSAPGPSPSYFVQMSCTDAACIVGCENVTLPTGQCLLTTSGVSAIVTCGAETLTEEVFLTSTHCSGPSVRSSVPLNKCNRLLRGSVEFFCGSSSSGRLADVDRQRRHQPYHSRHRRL
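Detergent-free condition (0.00005% Triton X-100) in acetate buffer pH 5.5 with DTT. 1.5 nM enzyme and compound were pre-mixed 15 min, then 2 uM Z-FR-AMC substrate added; reaction progress from fluorescence change between first and third reads (60 s).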
Lassa entry inh: Lassa virus entry inhibition | Lassa virus pseudotype entry inhibition, cell reporter; control for the full effect not named in the record | Potency, µM (doses to about 37.9 µM), without a hit: at the top dose activity change, negative = inhibition, usual class: inhibitors | actives 1.2% (n = 300,000); active means well fitted inhibition curve with a large enough effect; inconclusive means small, poorly fitted or top-dose-only effect, or effect the other way; inactive means flat fitted curve, though single readings scatter; tested in HEK293 cells; note: % is set by controls: 0 for no effect and ±100 for the full control effect; nearly all actives have a fitted effect of over 50% in size; luciferase read-out
StopGo reporter: lowers the luciferase signal of an FMDV 2A StopGo reporter; Potency, µM (series often up to 57.9 µM), without a hit: at the top dose signal change, negative = less light; AID 1159524; human cells with a luciferase reporter of 2A StopGo recoding; control for the full effect not named in the record; actives 1.2% (n = 410,000); active = well fitted falling curve with a large enough effect; inconclusive = small, poorly fitted or top-dose-only effect; inactive = no such curve, though single readings can be large or run the other way; tested in HEK293T cells; note: % is set by controls: 0 for no effect and ±100 for the full control effect; nearly all actives have a fitted effect of over 45% in size; luciferase light after 4 h
NS1 function inh: blocks influenza NS1 protein function; S. cerevisiae slowed by influenza A NS1, growth recovery by OD600; Potency, µM (top dose mostly 46.1 µM), inactives show at the top dose activity, positive = more growth; actives 0.4% (n = 270,000); AID 2326; note: actives are rising curves; nearly all actives have a fitted effect of over 50% in size
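Growth recovery, yeast-based: influenza A NS1 expressed in S. cerevisiae causes slow growth, and suppressors are detected by OD600. The parent strain without NS1 is used as positive control.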
Cruzain Triton: cruzain (T. cruzi) inhibition with detergent; purified cruzain, Z-FR-AMC fluorescence, 0.01% Triton; Potency, µM, without a hit: max response, negative = inhibition, most hits filed as inhibitors; actives 0.43% (n = 200,000); active = well fitted curve in the direction sought with a large enough effect; inconclusive = small, poorly fitted or top-dose-only effect, or another doubt; inactive = no such curve, though single readings can be large; an effect the other way counts as inactive or inconclusive;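 note: plate controls were neutral wells for no effect and buffer without enzyme for full effect; nearly all actives have a fitted effect of over 40% in size; top concentration of the series not given in the record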
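Compounds were screened in titration against cruzain (1.5 nM) with 0.01% Triton X-100 to counter colloidal aggregation. Activity was the AMC fluorescence increase over 60 s after adding 2 uM Z-FR-AMC at pH 5.5.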
MARV entry inh: blocks Marburg virus binding to or entry into cells | Marburg virus pseudotyped entry inhibition, cell reporter; control for the full effect not named in the record; about a third of the inactives were read at about 46 µM | AID 540276 | Potency, µM (highest dose often 37.8 µM), without a hit: at the highest dose activity change, negative = inhibition, usual class: inhibitors | actives 1.8% (n = 300,000); active = well fitted inhibition curve with a large enough effect; inconclusive = small, poorly fitted or top-dose-only effect, or effect the other way; inactive = flat fitted curve, though single readings scatter; tested in HEK293 cells; about a fifth of its hits are not listed in these tables; note: % is set by controls: 0 for no effect and ±100 for the full control effect; luciferase read-out
* = called active by the depositor; ? = inconclusive; . = no result given; & = joins results of further samples; [ ] = dose if it differs, or a comment. Unless noted, calls come from the whole dose curve; as a rule, active means well fitted rising curve with a large enough effect; inconclusive means small, poorly fitted or top-dose-only effect; inactive means no such curve, though single readings can be large or run the other way. Potency is the fitted concentration of half-maximal effect.

structure,RE007 growth inh,SARS PLP yeast,Cruzain noTriton,Lassa entry inh,StopGo reporter,NS1 function inh,Cruzain Triton,MARV entry inh
O=C(Nc1ccccn1)C1CCN(S(=O)(=O)c2ccc3c(c2)OCCCO3)CC1,-2%,8%,.,2%,?,.,.,?
CCOCCCNC(=O)C1CCC(CNS(=O)(=O)c2ccc(F)cc2)CC1 (stereo not given),7%,5%,7%,9%,0%,-79%,5.7%,-8%
Cc1ccc(-c2nnc3sc(CCc4ccccc4)nn23)cc1,7%,-1%,-2%,5%,.,-44%,0.7%,17%
CCc1ccc(NC(=O)CSc2ccc(-c3sc(C)nc3C)nn2)cc1,-8%,3%,.,.,-21%,-9%,.,.
CCc1ccc(NCc2cc3cc4c(cc3n(CC(=O)Nc3ccccc3C)c2=O)OCCO4)cc1,.,.,0%,-25%[46.1 µM],17%,.,-3.3%,.
O=C1S/C(=C\c2ccc(O)c([N+](=O)[O-])c2)C(=O)N1c1ccccc1Cl,5%,-2%,.,.,-25%,3%,.,.
C/C=C(\C)CN1CCC(n2nccc2NC(=O)CCOc2ccccc2)CC1,1%,6%,.,-13%,-21%,-6%,.,-24%
O=C(Cc1ccccc1)NCC(=O)OCC(=O)c1ccc([N+](=O)[O-])cc1,5%,3%,-18%,9%,-15%,7%,-14%,?
Cc1cc(C2=NNC(=NC3CC3)SC2)c(C)n1Cc1ccco1,-3%,10µM*,?,?,3.2µM*,5%,-9.2%,?
C=C1N(c2ccccc2)C(=O)OC1(C)C,-2%,20%,18%,18%,-13%,8%,1.9%,?
Cc1ccc(S(=O)(=O)c2ccc(Cl)cc2)cc1S(=O)(=O)N(C)CC(=O)O,25%,-7%,26%,5%,-7%,3%,1.0%,-1%
O=C(NCCc1ccc(Cl)cc1)c1cnc2sc(N3CCCCC3)nn2c1=O,.,.,-1%,?,-29%,.,2.4%,.
Cc1cc(C(=O)N2CCN(c3cccc(C)c3C)CC2)c2c(C)nn(-c3ccccc3)c2n1,.,.,9%,8%[46.1 µM],0%,.,-5.4%,.
Cc1ccccc1C(=O)Nc1sc2c(c1C(=O)NCc1ccco1)CCC(C(C)(C)C)C2 (stereo not given),.,.,?,16%[46.1 µM],-13%,.,-1.8%,-20%[46.1 µM]
Cc1ccc(C(=O)N(Cc2nc(-c3ccc(C)cc3)no2)C(C)C)cc1,6%,9%,-11%,.,-23%,-36%,-6.4%,.
O=C(CN1C(=O)NC2(CCCC2)C1=O)NCCc1ccc(Cl)cc1Cl,5%,2%,.,-5%,-11%,.,.,26%
Nc1c2c(nc3ccccc13)N(C1CCCCC1)CC2,12%,2%,1%,-24%,-5%,-22%,3.3%,10µM*
Cc1ccc(C(=O)Nc2ccccc2C(=O)N2CCCC2)cc1[N+](=O)[O-],-13%,2%,-7%,0%,-15%,16%,0.2%,15%
COc1ccc(NC(=O)CCC(=O)Nc2nnc(C3CCCCC3)s2)c(OC)c1,-14%,0%,.,.,1%,8%,.,.
COc1ccc(CNc2ncnc3c2c(-c2ccccc2)cn3-c2cccc(C)c2)cc1,.,.,-5%,1%[46.1 µM],-27%,.,2.0%,.
NC(=O)c1ncc(C(F)(F)F)cc1Oc1cccc(F)c1,-7%,-1%,5%,-8%,-6%,5%,3.2%,-11%
CC(=O)OC1CC(C)(C)N(OC(=O)c2ccccc2)C(C)(C)C1,34%,-5%,7%,2%,-9%,-8%,2.2%,?
Cc1nc(SCN2C(=O)c3ccccc3C2=O)n[nH]1,-7%,?,2%,-4%,-13%,6%,0.5%,4%
CCC(C)NC(=O)c1cc(Sc2nnc(C)s2)nc2ccccc12 (stereo not given),.,?,-7%,.,.,6%,-2.4%,.
Cc1ccc(SCc2nc3ccccc3[nH]2)cc1,-10%,-8%,-6%,?,39%[activator],-50%,-11%,?
COc1ccccc1CN(C(=O)c1cnccn1)C(C(=O)NC1CCCCC1)c1cc(OC)c(OC)c(OC)c1 (stereo not given),-13%,3%,.,-3%[46.1 µM],-1%,0%,.,-1%[46.1 µM]
CCOC(=O)c1c(C)[nH]c(C)c1C(=O)COC(=O)c1cccc(S(=O)(=O)NC)c1,26%,7%,4%,15%,-3%,-6%,-1.7%,-5%
O=C(CNC(=O)c1ccco1)OCc1ccc(C(=O)Oc2ccccc2)cc1,-5%,-17%,7%,23%,0%,-61%,-0.2%,-1%[46.1 µM]
COCCn1cc(C(=O)N2CCC(C)CC2)c2c3ccccc3n(C)c2c1=O,2%,3%,?,-5%,-9%,-33%,-1.8%,11%
CSc1nc(NNC=O)cc(Oc2ccc(NC(C)=O)cc2)n1,0%,8%,.,.,1%,17%,.,.
Cc1cccc(NC(=O)C(C)N2C(=O)C3C4CC(C(Br)C4Br)C3C2=O)c1 (stereo not given),-8%,-2%,-2%,1%,-27%,5%,-5.3%,?
Cn1c(=O)c2c(ncn2CC(=O)OCC(=O)NCCc2ccccc2)n(C)c1=O,-1%,3%,.,-18%,-15%,.,.,23%
O=S(=O)(Cc1noc(-c2ccc(OC(F)(F)F)cc2)n1)c1ccc(F)cc1,-3%,0%,.,.,27%,3%,.,.
CCOC(=O)c1[nH]c(C)c(C(=O)Nc2ccc(C)cc2C)c1C,9%,1%,0%,.,-11%,11%,1.9%,.
CCOC(=O)C1=C(COC(=O)c2ccc(C)c(S(=O)(=O)N3CCOCC3)c2)NC(=O)NC1C (stereo not given),11%,1%,.,-9%,?,.,.,0%
COc1ccc(NC(=O)c2cc3sccc3n2Cc2ccc(F)cc2)cc1OC,-6%,4%,2%,8%,28%,-10%,-3.8%,-18%
CC/C=C/C(=O)N1CC2(CC(c3cccc(NC(=O)CC)c3)=NO2)C[C@H]1C(N)=O (stereo not given in full),-6%,2%,.,.,8%,-7%,.,.
CCOc1ccc(C(=O)N2CCCC2)cc1OC,12%,1%,-2%,-27%,12%,4%,-2.5%,0%
CCC1=C(OC(=O)N(CC)CC)N2C(=O)OC(=NCCc3c[nH]c4ccccc34)[C@]2(Cc2ccccc2)[C@H]2C1=CC[C@H]1C(=O)N(c3ccccc3)C(=O)[C@H]12,4%,1%,3%,.,0%,9%,1.8%,.
CC1CCc2nc(NC(=O)c3ccco3)sc2C1 (stereo not given),?,-8%,-7%,0.28µM*,-90%,-69%,-5.9%,1.3µM*
Cc1cc(C)cc(-n2ccnc2SCC(=O)Nc2nccs2)c1,18%,2%,-2%,0%,-9%,-7%,0.8%,-5%
O=C1Cc2ccccc2C(=O)N1OCc1ccc(Cl)cc1,-4%,2%,.,18%,34%[activator],.,.,-6%[46.1 µM]
CC(NC(=O)C12CC3(C)CC(C)(CC(C)(C3)C1)C2)C(=O)O (stereo not given),-8%,1%,.,-10%,-10%,7%,.,-5%[46.1 µM]
O=C(c1ccccc1)N1CCN(C(=O)c2ccc3c(c2)OCCO3)CC1,-6%,-1%,.,-1%,4%,.,.,-9%[46.1 µM]
Cc1noc(C)c1C(=O)OCC(=O)NC1CC1,-10%,?,1%,12%,-26%,5%,1.1%,7%
CCS(=O)(=O)N1CCC(c2nc(-c3ccc(C)cc3)no2)CC1,2%,-2%,10%,-6%,16%,4%,-1.9%,5%
O=C(c1ccc2oc(CCCc3ccccc3)nc2c1)N1CCCC(CCCO)C1 (stereo not given),-2%,-5%,.,.,-16%,-41%,.,.
CCC1=[N+](C)c2cccc3cccc(c23)N1C,-15%,-9%,.,12%[46.1 µM],-14%,.,.,5%[46.1 µM]
Cc1ccc(-c2cc(C(=O)NCCN3CCOCC3)no2)cc1,-20%,-2%,-11%,4%,.,-4%,-2.3%,1%
Cc1cc(C(F)F)n2ncc(C(=O)NCCc3ccccc3Cl)c2n1,17%,-2%,0%,-4%,-7%,-14%,-0.4%,?

The list goes on:
structure,RE007 growth inh,SARS PLP yeast,Cruzain noTriton,Lassa entry inh,StopGo reporter,NS1 function inh,Cruzain Triton,MARV entry inh
COc1ccc(OC)c(S(=O)(=O)Nc2cc3c4c(c2)CC(=O)N4CCC3)c1,-13%,0%,.,29%,43%[activator],.,.,-13%[46.1 µM]
O=C(Cc1ccccc1)NCC(=O)N1CCN(c2ccccc2F)CC1,-2%,2%,.,2%,-4%,-7%,.,?
Cn1c(=O)c2c(ncn2CC(=O)OCC(=O)NNC(=O)c2ccc(Cl)cc2)n(C)c1=O,-1%,-5%,.,-3%,-4%,.,.,?
COCCn1c(=O)[nH]c2cc(C(=O)N3CCN(c4ccc(OC)cc4)CC3)ccc2c1=O,-3%,2%,.,.,?,-5%,.,3%[46.1 µM]
CCOc1cc(C2CC(=O)N3CN(C4CCCCC4)CSC3=C2C#N)ccc1O (stereo not given),-8%,-8%,-5%,.,-13%,-82%,-11%,2%
CN(CC(=O)Nc1ccc2c(c1)OCCO2)S(=O)(=O)c1ccc(F)cc1,-6%,2%,.,?,0%,2%,.,?
CC(C)(C#CCN1CCCCC1)OCCOC(c1ccccc1)c1ccccc1,-12%,22%,-3%,?,?,-2%,-0.5%,?
COc1ccc(CNC(=O)CCCNS(=O)(=O)c2cccc3nonc23)cc1,10%,2%,1%,-21%,2%,9%,0.1%,2%&2%
O=C(Nc1cccc(C(F)(F)F)c1)c1ccc(F)c(S(=O)(=O)N2CCc3ccccc3C2)c1,.,.,?,1%[46.1 µM],?,.,0.3%,.
O=c1c(N2CCN(c3cccc(Cl)c3)CC2)csc2ccccc12,.,.,-2%,1%[46.1 µM],-20%,.,-6.2%,.
CCOC(=O)Cc1csc(NS(=O)(=O)c2ccc3c4c(cccc24)C(=O)N3CC)n1,0%,0%,19%,4%,-4%,-4%,-7.8%,7%
O=C(N1CCN(c2ccccc2F)CC1)C1(S(=O)(=O)c2ccc(Cl)cc2)CC1,4%,-6%,.,4%[46.1 µM],9%,-16%,.,-3%[46.1 µM]
